Compound activity from PubChem BioAssay.
Menin-MLL FL inh: qHTS Assay for Inhibitors Targeting the Menin-MLL Interaction in MLL Related Leukemias: Competition With Fluorescein Labeled MLL-derived Peptide; Fluorescence polarization, fluorescein-MLL peptide displacement from menin; FP activity change, % at 61.4 µM; 290,000 tested, under 10 active; AID 1766, 2009; inconclusive = falling polarisation curve, or a change in total fluorescence; inactive = total fluorescence flat and polarisation flat or rising; no compound was filed as active; the % refers to the polarisation; negative = inhibition;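 also: % of control where 0% means no effect; inhibitors lower the polarisation; unlabelled MLL peptide was the positive control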
Sfp inh: qHTS Assay for Inhibitors of Bacillus subtilis Sfp phosphopantetheinyl transferase (PPTase) | AID 1490, 2009 | 4'-phosphopantetheinyl transferase ffp (Bacillus subtilis), Q9F4F7 | Potency, µM, without a hit: max response, negative = inhibition, usual class: inhibitors | 3.5% of 310,000 active | Biochemical Sfp PPTase activity, qHTS; active = well fitted inhibition curve with a large enough effect; inconclusive = small, poorly fitted or top-dose-only effect, or another doubt; inactive = no such curve, though single readings can be large or run the other way;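 also: the enzyme is Sfp with the accession as filed and its product quenches rhodamine fluorescence; potency is read from the fitted curve at half-maximal effect; 0% = enzyme reaction without inhibitor and -100% = no enzyme wells; top concentration of the series not given in the record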
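Reaction rates are the 30-min fluorescence difference (ex 525, em 598 nm) in wells containing 15 nM Sfp, 5 uM rhodamine-CoA and 12.5 uM BHQ-2-YbbR at pH 7.6 with 10 mM MgCl2.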
* marks the source's active call; other numbers are inactive results; ? = inconclusive; & = joins results of further samples; ! = a repeat was not active; [ ] = dose if it differs, or a comment. This is a subset; rates above refer to the full screens.

SMILES	Menin-MLL FL inh	Sfp inh
c1ccc(C2(c3ccccc3)CC2C2=NCCN2)cc1 (stereo not given)	-5.1	9%
CCCCCCCCCc1ccc(O)cc1	0.8	11%
CN1[C@@H]2CC[C@H]1CC(O)C2 (stereo not given in full)	0.0[24.8 µM]	-10%
C=C(C)C1Cc2c(ccc3c(=O)c4c(oc23)COc2cc(OC)c(OC)cc2-4)O1 (stereo not given)	-9.7&-11	-6%&8%
CN1CCc2cc3c(cc2C1C1OC(=O)c2c1ccc1c2OCO1)OCO3 (stereo not given)	-0.1	17%&36%
Cc1cc([C@@H]2CCCN2C)on1	2.8	0%
Clc1ccc(CS[C@@H](Cn2ccnc2)c2ccc(Cl)cc2Cl)cc1	-1.9[24.8 µM]	-14%
Cc1nc2cnc(N3CCNCC3)nc2n(C)c1=O	-0.3	10%
O=P1(Oc2ccccc2)CC(O)C(O)C(COCc2ccccc2)O1 (stereo not given)	-8.1	-2%
CCC1(C)CC(=O)NC(=O)C1	0.2[24.8 µM]	15%
Cc1ccccc1-c1cncnc1NCCc1cnc[nH]1	-4.1	9%
Cc1cc(OC(=O)N2CCCCC2)c(C(C)C)cc1[N+](C)(C)C	-0.2	3%
Clc1ccc([C@@H](OCCN2CCCCC2)c2ccccc2)cc1	-2.2[24.8 µM]	21%
CCN(CC)CCOC(=O)C(C)(c1ccccc1)c1ccccc1	-3.4	4%
COC(=O)[C@]1(C)CC[C@@]2(C)CC[C@@]3(C)C4=CCc5c(cc(O)c(O)c5C)[C@]4(C)CC[C@@]3(C)C2C1 (stereo not given in full)	-1.4	-24%
OC[C@H]1O[C@@H](n2cnc3cc(Cl)c(Cl)cc32)[C@H](O)[C@H]1O	1.7	11%&29%
CCOC(=O)NC(O)C(Cl)(Cl)Cl (stereo not given)	-3.8	15%
C[N+]1([O-])[C@H]2CC[C@H]1CC(OC(=O)[C@@H](CO)c1ccccc1)C2 (stereo not given in full)	5.7	-6%
CNC(C)Cc1ccccc1OC (stereo not given)	4.6&3.3	4%&11%
CC1CC[C@@]2(OC1)O[C@@H]1[C@@H](O)[C@H]3C4CC[C@H]5C[C@@H](O[C@@H]6O[C@H](CO)[C@H](O[C@@H]7O[C@H](CO)[C@@H](O)[C@H](O[C@@H]8OC[C@@H](O)[C@H](O)[C@H]8O)[C@H]7O[C@@H]7O[C@H](CO)[C@@H](O)[C@H](O[C@@H]8O[C@H](CO)[C@@H](O)[C@H](O)[C@H]8O)[C@H]7O)[C@H](O)[C@H]6O)[C@H](O)C[C@]5(C)C4CC[C@]3(C)[C@H]1[C@@H]2C (stereo not given in full)	12	-1%
CCOC(=O)C(SP(=S)(OC)OC)c1ccccc1 (stereo not given)	4.8	?
COc1ccc2c(c[n+](C)c3c4cc5c(cc4ccc23)OCO5)c1OC	-1.2&-0.5&4.2	50µM*
CC(C)(C#N)O[C@H]1OC(CO)C(O)C(O)C1O (stereo not given in full)	-4.4	14%
CC(=O)O[C@H]1C[C@@H](O[C@@H]2[C@H](C)O[C@H](O[C@@H]3[C@H](C)O[C@H](O[C@@H]4CC[C@@]5(C)[C@@H](CC[C@]6(C)[C@]5(C)C[C@H](O)[C@]5(C)[C@@H](C7=CC(=O)OC7)CC[C@@]56O)C4)C[C@@H]3O)C[C@@H]2O)O[C@@H](C)[C@H]1O[C@H]1O[C@@H](CO)[C@@H](O)[C@@H](O)[C@@H]1O	-2.0[24.8 µM]	19%
COc1cc2c(cc1O)CCNC2C (stereo not given)	1.6	13%
O=Cc1ccco1	7.7	5%
CC(C)C[C@H](NC(=O)[C@H](CC(C)C)NC(=O)[C@H](Cc1ccccc1)NC(=O)[C@@H](N)Cc1ccc(O)cc1)C(=O)N[C@@H](CCCN=C(N)N)C(=O)N[C@@H](CC(N)=O)C(=O)N1CCC[C@H]1C(=O)O	-2.2	8%
C[C@H](Cc1ccc2c(c1)OC(C(=O)O)(C(=O)O)O2)NC[C@H](O)c1cccc(Cl)c1	0.9&-6.3	13%
CC(C)(O)[C@@H]1[C@H]2OC(=O)[C@@H]1[C@]1(O)C[C@H]3O[C@]34C(=O)O[C@H]2[C@@]14C (tested in a mixture with another compound)	-3.5	-13%
CC1=C2C[C@H]3[C@@H](CC=C4C[C@@H](O)CC[C@@]43C)[C@@H]2CC[C@]12O[C@@H]1C[C@H](C)CN[C@H]1C2C (stereo not given in full)	1.6	17%
O=C(/C=C\c1ccc(Cl)cc1)N[C@@]12CCC(=O)[C@@H]3Oc4c(O)ccc5c4[C@@]31CCN(CC1CC1)[C@@H]2C5	?	18%
CCCCC/C=C\C/C=C\C/C=C\C/C=C\CCCC(=O)NCc1ccc(O)c(OC)c1	3.8	9%&-9%
C[C@H]1CC[C@@H]2[C@@H](C)[C@H]3C(CC4C5CC=C6CC(O[C@@H]7O[C@H](CO)C(O[C@@H]8O[C@@H](C)[C@H](O)[C@@H](O)[C@H]8O)[C@H](O)[C@H]7O[C@@H]7O[C@@H](C)[C@H](O)[C@@H](O)[C@H]7O)CC[C@]6(C)C5CC[C@@]43C)N2C1 (stereo not given in full)	?	8%
CNC(Cc1c[nH]c2ccccc12)C(=O)O (stereo not given)	1.2	-4%
CN1C[C@@H](CO)C=C2c3cccc4[nH]cc(c34)CC21 (stereo not given in full)	?	21%&8%
NCCCP(=O)(O)CC1CCCCC1	?	-5%&-2%
NC(=NCCCC(N)C(=O)O)N[N+](=O)[O-] (stereo not given)	2.8	-9%
CCCCCc1cc(O)c2c(c1)OC(C)(C)[C@@H]1CCC(C(=O)O)=C[C@H]21	4.3	8%&26%
CCCCC/C=C\C/C=C\CCCCCCCC(=O)NCCCC(=O)O	4.7	30%[activator]
C/C=C(\C)C(=O)OC1CC(OC(C)=O)[C@@]2(C(=O)OC)COC3C2[C@@]12CO[C@](O)(C(=O)OC)C2[C@](C)(C12OC1(C)C1CC2OC2OC=C[C@]21O)C3O (stereo not given in full)	0.3	-2%
CNc1ccccc1C(=O)O	3.3	0%
CC(C)[C@]1(NC(=O)[C@@H]2C=C3c4cccc5[nH]cc(c45)C[C@H]3N(C)C2)O[C@@]2(O)C3CCCN3C(=O)[C@H](Cc3ccccc3)N2C1=O (stereo not given in full)	?	-13%
CC1(C)N(O)C(c2ccc(C(=O)O)cc2)=[N+]([O-])C1(C)C	-9.7	?
C=C(C)C1CCC(C)=CC1c1c(OC)cc(C)cc1OC (stereo not given)	-2.4	1%
N[C@H](CP(=O)(O)O)C(=O)O	22	-8%
NC(Cc1ccc(Oc2cc(I)c(O)c(I)c2)c(I)c1)C(=O)O (stereo not given)	6.3	-13%
CC(C)[C@H](CO)Nc1nc(Nc2cccc(Cl)c2)c2ncn(C(C)C)c2n1	?	14%
CN1CCN(c2ccc3ccccc3n2)CC1	1.2&-12	1%&3%
CC(=O)OC1CN2CCC1CC2 (stereo not given)	3.1	22%
OCC(Br)(Br)Br	-12	7%
CCCN1CCC[C@@H]2Cc3cn[nH]c3C[C@H]21	-2.5	?
CC(C)Oc1cc(-n2nc(C(C)(C)C)oc2=O)c(Cl)cc1Cl	?	2%
CNC(=O)O/N=C/C(C)(C)SC	1.6	13%
O=C(O)c1ccc(-c2ccc3cc(C45CC6CC(CC(C6)C4)C5)c(O)cc3c2)cc1	-0.4	?
CC1(C)C(O)CC(=O)[C@]2(C)C1CC(=O)[C@]1(C)C2CC[C@@]2(C)C(c3ccoc3)OC(=O)C3O[C@@]321 (stereo not given in full)	-2.9	2%
O=C(O)c1cc(O)c(O)c(O)c1	-5.5&-0.5	8.9µM*!
CC1CC2OC2/C=C\C=C/C(=O)Cc2c(Cl)c(O)cc(O)c2C(=O)O1 (stereo not given)	1.2	-8%
CCOc1cncc(/C=C/CCNC)c1	2.7	-10%
Clc1c(Cl)c(Cl)c(Cl)c(Cl)c1Cl	0.6	10%
CC1=CCCC2C1(C)CCC(C)C2(C)CC/C(C)=C/C[n+]1cn(C)c2c(N)ncnc21 (stereo not given)	2.2	-25%
(more compounds)
SMILES	Menin-MLL FL inh	Sfp inh
O=C(Oc1ccccc1)N1CCC2(CCCN(C(c3ccccc3)c3ccccc3)C2)CC1	4.8	-8%
CC(C)c1cc2c(c(O)c1O)[C@]1(C(=O)O)CCCC(C)(C)C1CC2 (stereo not given in full)	-9.9	-108%
N#CC(C#N)=Cc1cc(O)c(O)c([N+](=O)[O-])c1	-0.1	8%&-27%
CN1CC[C@@]2(CCCN(C(=O)c3csnn3)C2)C1	0.2	-16%
C=C1CCC(O)C/C1=C/C=C1\CCC[C@]2(C)[C@@H]([C@H](C)CCCC(C)C)CC[C@@H]12 (stereo not given in full)	5.2	-1%
C[C@H]1CC[C@@H]2[C@@H](C)[C@H]3[C@H](C[C@H]4[C@@H]5CC=C6CC(O[C@@H]7O[C@H](CO)[C@H](O)[C@H](O[C@@H]8O[C@H](CO)[C@@H](O)[C@H](O)[C@H]8O)[C@H]7O[C@H]7O[C@@H](C)[C@H](O)[C@@H](O)[C@H]7O)CC[C@]6(C)[C@H]5CC[C@]34C)N2C1 (stereo not given in full)	?	-9%
COC[C@H]([C@@H](O)[C@@H](O)C(=O)NCC[C@@H](C)c1nc(/C=C/C[C@H]2OC3(C[C@H](O)[C@H]2C)OC([C@@H](C[C@@H](O)[C@@H](C)[C@@H](O)[C@@H](C)/C=C(C)/C(C)=C/C=C/C(C)=C\C#N)OC)[C@@H](OP(=O)(O)O)C3(C)C)co1)N(C)C (stereo not given in full)	-3.5	16%&-6%
CCCc1cc2c(n1CCO)C(C)C1CN(C(=O)c3ccccc3)C(C)(C(=O)OC)C21 (stereo not given)	?	37%[activator]
CC(N)C(O)c1ccc(O)c(O)c1 (stereo not given)	-3.0&1.6	-23%&-38%
CN[C@@H](C)[C@H]1CC[C@@H](N)[C@@H](O[C@@H]2[C@@H](O)[C@@H](O[C@H]3OC[C@@](C)(O)[C@@H](NC)[C@@H]3O)[C@H](N)C[C@@H]2N)O1 (tested in a mixture with another compound)	0.6[24.8 µM]	8%
CC(=O)OC1CC(OC(C)=O)[C@]2(C)C(CC(OC(C)=O)[C@]3(C)C2CC[C@@]2(C)C(c4ccoc4)C(=O)C4O[C@]432)C1(C)C (stereo not given in full)	5.3	17%
Cc1ccc2c(c1)Cc1c(C(=O)NN3CCCCC3)nn(-c3ccc(Cl)cc3Cl)c1-2	3.6	?
C[C@H]1CCC/C=C/C2C[C@H](O)C[C@H]2[C@H](O)/C=C/C(=O)O1 (stereo not given in full)	?	-3%&-1%
N#CC(O[C@@H]1OC(COC2OC(CO)C(O)C(O)[C@@H]2O)C(O)C(O)C1O)c1ccccc1 (stereo not given in full)	-0.4	24%
O=CC=O	2.6	0%
COC(=O)[C@H]1C[C@H]2CC[C@H](O)C[C@H]2N1CC1CC1	-15	12%
CC1=C[C@H]2[C@]3(O)C(C=C(CO)C[C@]2(O)C1=O)[C@@H]1C(C)(C)[C@]1(O)[C@H](O)[C@H]3C (stereo not given in full)	1.5	4%
CC(C)(O/N=C(\C(=O)N[C@@H]1C(=O)N2C(C(=O)[O-])=C(C[n+]3ccccc3)CS[C@@H]12)c1csc(N)n1)C(=O)O	-4.3[24.8 µM]	?
CCN(CC)C(=O)N[C@@H]1C[C@H]2c3cccc4[nH]cc(c34)C[C@@H]2N(C)C1	-6.1&-3.6[24.8 µM]	16%&11%
CCCCCCC(C)(C)c1ccc([C@@H]2C[C@H](O)CC[C@@H]2CCCO)c(O)c1	6.8	1%

Shown as a markdown table: part of the list above
| mol | Menin-MLL FL inh | Sfp inh |
| --- | --- | --- |
| CCCc1cc2c(n1CCO)C(C)C1CN(C(=O)c3ccccc3)C(C)(C(=O)OC)C21 (stereo not given) | ? | 37%[activator] |
| CC(N)C(O)c1ccc(O)c(O)c1 (stereo not given) | -3.0&1.6 | -23%&-38% |
| CN[C@@H](C)[C@H]1CC[C@@H](N)[C@@H](O[C@@H]2[C@@H](O)[C@@H](O[C@H]3OC[C@@](C)(O)[C@@H](NC)[C@@H]3O)[C@H](N)C[C@@H]2N)O1 (tested in a mixture with another compound) | 0.6[24.8 µM] | 8% |
| CC(=O)OC1CC(OC(C)=O)[C@]2(C)C(CC(OC(C)=O)[C@]3(C)C2CC[C@@]2(C)C(c4ccoc4)C(=O)C4O[C@]432)C1(C)C (stereo not given in full) | 5.3 | 17% |
| Cc1ccc2c(c1)Cc1c(C(=O)NN3CCCCC3)nn(-c3ccc(Cl)cc3Cl)c1-2 | 3.6 | ? |
| C[C@H]1CCC/C=C/C2C[C@H](O)C[C@H]2[C@H](O)/C=C/C(=O)O1 (stereo not given in full) | ? | -3%&-1% |
| N#CC(O[C@@H]1OC(COC2OC(CO)C(O)C(O)[C@@H]2O)C(O)C(O)C1O)c1ccccc1 (stereo not given in full) | -0.4 | 24% |
| O=CC=O | 2.6 | 0% |
| COC(=O)[C@H]1C[C@H]2CC[C@H](O)C[C@H]2N1CC1CC1 | -15 | 12% |
| CC1=C[C@H]2[C@]3(O)C(C=C(CO)C[C@]2(O)C1=O)[C@@H]1C(C)(C)[C@]1(O)[C@H](O)[C@H]3C (stereo not given in full) | 1.5 | 4% |
